# PTHR1 agonist: qHTS for PTHR1 Agonists: Primary Screen; HEK293 GP2 PTHR1 cells, GloSensor cAMP luminescence, 1 h; Potency, µM (top dose mostly 115 µM), inactives show at the highest dose activation, hits mostly activators; 410,000 tested, 0.075% active; also: potency is read from the fitted curve at half-maximal effect; nearly all actives have a fitted effect of over 55% in size; some results filed as inactive show a strong effect at the top dose; inactives centre near -15; many of its hits are not listed in these tables
#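 HEK-293-derived GP2 cells expressing PTHR1 and a GloSensor cAMP reporter, 3,000/well, plated overnight, given luciferin plus IBMX (each 0.5 mM as added) for 1 h at 37 °C, then compound for 1 h at 37 °C. Luminescence was read after 15 min at room temperature.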
# GLP1R inv ag: qHTS of GLP-1 Receptor Inverse Agonists (Inhibition Mode); Glucagon-like peptide 1 receptor (Homo sapiens), P43220; HEK293 GLP-1R CRE-luciferase, luminescence, 24 h; GLP-1R form is constitutively active; Potency, µM (highest dose often 38.3 µM), without a hit: at the top dose activity change, negative = inhibition, hits mostly inhibitors; 410,000 tested, 1.6% active; also: potency is read from the fitted curve at half-maximal effect; % is scaled to controls: 0 for no effect and ±100 for the full control effect; nearly all actives have a fitted effect of over 55% in size
#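 qHTS in 1536-well format: reporter HEK293 cells expressing constitutive GLP-1R activity in DMEM + 10% Nu serum, 24 hr with compounds at 37 deg C, luminescence read after 12 min with detection reagent.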
# DRD3 antagonist: qHTS of D3 Dopamine Receptor Antagonist: qHTS. D(3) dopamine receptor (Homo sapiens), P35462. D3R cells, DiscoveRx beta-arrestin luminescence, antagonist mode; stronger effect = lower value. max response, negative = inhibition, %. 360,000 tested, 2.5% active; in the data active = max response below about -50%; inconclusive = no clear call, values can overlap the other calls; also: % is scaled to controls: 0 for no effect and ±100 for the full control effect; mostly tested at two doses, the higher about 12 µM
# Target sequence (P35462 whole entry, looked up): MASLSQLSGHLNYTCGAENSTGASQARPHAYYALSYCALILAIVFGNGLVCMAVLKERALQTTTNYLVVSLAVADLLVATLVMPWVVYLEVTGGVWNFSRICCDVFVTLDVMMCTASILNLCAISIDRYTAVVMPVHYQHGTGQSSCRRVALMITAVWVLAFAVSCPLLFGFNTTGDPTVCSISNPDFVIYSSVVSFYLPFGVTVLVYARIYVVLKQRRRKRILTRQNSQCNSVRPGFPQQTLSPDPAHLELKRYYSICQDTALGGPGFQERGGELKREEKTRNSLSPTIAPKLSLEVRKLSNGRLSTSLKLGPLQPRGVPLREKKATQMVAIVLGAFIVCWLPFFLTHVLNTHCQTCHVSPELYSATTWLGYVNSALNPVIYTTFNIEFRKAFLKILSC
#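 Cells expressing the human receptor were seeded at 1500 cells/well, incubated overnight at 37 degrees C in 5% CO2, then exposed to library compounds with dopamine controls for 90 minutes at 37 degrees C before luminescent detection.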
# pAkt inh: HTS Assay for Inhibitors of Akt Phophorylation: Primary Screen; Neuro2A IGF-stimulated pAkt S473 HTRF, 20 min; stronger effect = lower value; 360,000 tested, 0.32% active; activity change, % for hits at 50 µM; AID 651550, 2012; in the data active = activity change below about -80%; inconclusive = mostly about -51% to -80%; also: % is scaled to controls: 0 for no effect and ±100 for the full control effect
#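 Neuro2A cells in DMEM with 0.5% FBS, overnight at 37 deg C, given compound at single 50 µM final, then IGF (6 nM final) for 20 min at 37 deg C. Lysed; phospho-Akt Ser473 by HTRF after 24 h, 665/615 ratio.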
# GLP1R ag: qHTS of GLP-1 Receptor Agonists. 380,000 tested, 0.007% active. Potency, µM (highest dose often 45.6 µM), inactives show top-dose activation, actives largely listed as activators. HEK293 GLP-1R CRE-luciferase, luminescence, 4-6 h; cells express a hypersensitive GLP-1R form; also: potency is read from the fitted curve at half-maximal effect; % of control where 0% means no effect
# * marks the source's active call; other numbers are inactive results; i = inactive; ? = inconclusive; . = no result given; & = joins results of further samples; [ ] = dose if it differs, or a comment. Unless noted, calls follow the shape of the dose curve; as a rule, active = well fitted curve in the direction sought with a large enough effect; inconclusive = small, poorly fitted or top-dose-only effect, or another doubt; inactive = no such curve, though single readings can be large; an effect the other way counts as inactive or inconclusive.
# Key to letters: A = PTHR1 agonist; B = GLP1R inv ag; C = DRD3 antagonist; D = pAkt inh; E = GLP1R ag
> COc1ccc(C2CC(c3ccccc3)=NN2C(=O)CCCC(=O)O)cc1 (stereo not drawn)
  A: ?; B: 2%; C: -10; D: i; E: 0%
> Cc1ccc2c(c1)sc(-c1ccc(N(C)C)cc1)[n+]2C
  A: -89%[inhibitor]; B: -29%; C: 6; D: i; E: -4%
> CCOc1ccccc1C1NC(=O)c2ccccc2N1 (stereo not drawn)
  A: i; B: ?; C: -30; D: i; E: 0%
> O=C(O)c1cc(NS(=O)(=O)c2cccc3ccccc23)ccc1O
  A: -1%[57.5 µM]; B: -10%; C: ?; D: i; E: 2%
> O=C(c1ccc(NS(=O)(=O)c2ccccc2)cc1)N1CCN(c2ccccc2)CC1
  A: -15%; B: 5%; C: 9; D: i; E: 5%
> CC(=O)Nc1cccc(-c2nnc(-c3ccc(C)cc3)o2)c1
  A: -22%; B: 32%; C: ?; D: i; E: -3%
> CC(C)(C)CC(C)(C)c1ccc(OCCOCC[N+](C)(C)Cc2ccccc2)cc1
  A: -17%; B: -32%; C: .; D: i; E: -2%&-3%
> NC(=O)c1c(NC(=O)c2ccccc2F)sc2c1CCC2
  A: -35%; B: -18%; C: -8; D: i; E: -2%
> CCc1nc(N)nc(N)c1-c1ccc(NCCN)c([N+](=O)[O-])c1
  A: -13%; B: ?; C: 1; D: i; E: -1%

# Already shown: entries from further up.
# Key to letters: A = PTHR1 agonist; B = GLP1R inv ag; C = DRD3 antagonist; D = pAkt inh; E = GLP1R ag
> COc1ccc(C2CC(c3ccccc3)=NN2C(=O)CCCC(=O)O)cc1 (stereo not drawn)
  A: ?; B: 2%; C: -10; D: i; E: 0%
> Cc1ccc2c(c1)sc(-c1ccc(N(C)C)cc1)[n+]2C
  A: -89%[inhibitor]; B: -29%; C: 6; D: i; E: -4%
> CCOc1ccccc1C1NC(=O)c2ccccc2N1 (stereo not drawn)
  A: i; B: ?; C: -30; D: i; E: 0%
> O=C(O)c1cc(NS(=O)(=O)c2cccc3ccccc23)ccc1O
  A: -1%[57.5 µM]; B: -10%; C: ?; D: i; E: 2%
> O=C(c1ccc(NS(=O)(=O)c2ccccc2)cc1)N1CCN(c2ccccc2)CC1
  A: -15%; B: 5%; C: 9; D: i; E: 5%
> CC(=O)Nc1cccc(-c2nnc(-c3ccc(C)cc3)o2)c1
  A: -22%; B: 32%; C: ?; D: i; E: -3%
> CC(C)(C)CC(C)(C)c1ccc(OCCOCC[N+](C)(C)Cc2ccccc2)cc1
  A: -17%; B: -32%; C: .; D: i; E: -2%&-3%
> NC(=O)c1c(NC(=O)c2ccccc2F)sc2c1CCC2
  A: -35%; B: -18%; C: -8; D: i; E: -2%

# Assay outcomes from PubChem.

# Only part of the results is shown; rates above refer to the full screens.
